A647 autofl: qHTS Assay for Spectroscopic Profiling in A647 Spectral Region; Compound fluorescence, A647 channel (570/671 nm), Tris buffer; max dye-equivalent concentration, M; 59,000 tested, under 10 active; AID 592, 2007; active means above 1 µM dye equivalent; inconclusive means 0.1 to 1 µM; inactive means 0.1 µM or less;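 further: values scaled relative to a standard on each plate; highest value over a series up to 38 µM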
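Compound fluorescence was measured in 100 mM Tris buffer, pH 8.0, after 15 min at room temperature, using 570 nm excitation and 671 nm emission filters. Signal was normalized to a per-plate Alexa 647 standard curve and expressed as dye-equivalent concentration at each compound concentration.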
TSHR agonist: qHTS Assay for Agonists of the Thyroid Stimulating Hormone Receptor; HEK293-CNG-TSHR cells (CNG channel as cAMP sensor), membrane potential dye, cAMP; Thyrotropin receptor (Homo sapiens), P16473; hit rate 0.48% among 73,000; Potency, µM (series often up to 57.1 µM), for the others: top-dose activation, hits mostly activators; AID 926, 2007; active = well fitted activation curve of enough size with the parental cells flat; inconclusive = any curve in the parental cells; inactive = parental cells flat and receptor cells flat or falling; further: potency means the concentration at half of the fitted maximal effect; % of control where 0% means no effect; weak receptor curves with flat parental cells got no call and are not listed
Target sequence (P16473 whole entry, looked up): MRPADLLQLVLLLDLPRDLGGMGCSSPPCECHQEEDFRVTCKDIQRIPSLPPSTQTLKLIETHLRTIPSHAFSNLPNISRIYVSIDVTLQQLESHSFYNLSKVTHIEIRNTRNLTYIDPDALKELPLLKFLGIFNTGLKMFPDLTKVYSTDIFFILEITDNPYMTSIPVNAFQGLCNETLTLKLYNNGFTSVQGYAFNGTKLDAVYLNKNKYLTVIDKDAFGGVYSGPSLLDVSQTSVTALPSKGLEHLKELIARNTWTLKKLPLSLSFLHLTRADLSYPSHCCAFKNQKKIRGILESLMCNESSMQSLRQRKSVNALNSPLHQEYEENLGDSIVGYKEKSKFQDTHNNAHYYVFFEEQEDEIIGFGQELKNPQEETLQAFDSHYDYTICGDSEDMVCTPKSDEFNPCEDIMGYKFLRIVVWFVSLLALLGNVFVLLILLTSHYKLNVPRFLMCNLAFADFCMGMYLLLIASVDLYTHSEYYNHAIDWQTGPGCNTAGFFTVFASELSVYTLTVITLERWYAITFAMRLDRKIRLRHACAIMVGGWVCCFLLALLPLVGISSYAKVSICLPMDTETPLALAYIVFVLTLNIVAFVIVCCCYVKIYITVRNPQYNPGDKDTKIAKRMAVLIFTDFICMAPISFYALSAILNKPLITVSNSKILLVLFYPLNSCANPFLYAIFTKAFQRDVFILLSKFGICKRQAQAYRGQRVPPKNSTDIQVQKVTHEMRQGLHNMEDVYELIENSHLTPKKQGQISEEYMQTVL
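cAMP rise detected as CNG-channel membrane depolarization by fluorescent dye (emission 590 nm), 30 min after compound, following 60 min dye loading containing 100 uM RO 20-1724 at room temperature. Cells: TSHR/CNG HEK 293, with parental CNG HEK 293 as control.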
AID923: qHTS Assay for Allosteric/Competitive Inhibitors of Caspase-1: Spectroscopic Profiling in AFC Spectral Region. compound fluorescence, AFC spectral region (405/520 nm); almost no hit is shown here. AID 923, 2007. Potency, µM (titrated, usually from 57.5 µM), inactives show at the top dose fluorescence increase, hits mostly activators. hit rate 1.1% among 75,000; active means well fitted activation curve with a large enough effect; inconclusive means small, poorly fitted or top-dose-only effect;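 further: potency means the concentration at half of the fitted maximal effect; 0% is about no effect; scaled to a free AFC standard on each plate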
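Titrations up to 57 uM read every 20 sec for 3 min (405/520 nm) with 50 nM caspase 1 and 5 uM Ac-WEHD-AFC, pH 7.5 HEPES buffer. Fluorescence-vs-time intercept gave baseline, scaled against on-plate AFC standard.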
Resorufin autofl: qHTS Assay for Spectroscopic Profiling in Resorufin Spectral Region; max dye-equivalent concentration, M; AID 588, 2007; Compound fluorescence, resorufin region 547/598 nm, buffer; active compounds read high; hit rate 0.04% among 59,000; active = above 10 nM dye equivalent; inconclusive = 1 to 10 nM; inactive = 1 nM or less; a few of its hits are not listed in these tables; further: highest value over a series up to 38 µM
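Compounds in 100 mM Tris, pH 8.0, incubated 15 min at room temperature, then fluorescence read at 547 nm excitation/598 nm emission. Signal converted to dye-equivalent concentration via an on-plate six-point resorufin standard curve, per compound concentration.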
A488 fluor: qHTS Assay for Spectroscopic Profiling in A488 Spectral Region; compound autofluorescence, A488 spectral region, dye equivalency; active compounds read high; max dye equivalency, M; hit rate 0.1% among 59,000; AID 591, 2007; active = above 10 nM dye equivalent; inconclusive = 1 to 10 nM; inactive = 1 nM or less; about half of its hits are not listed in these tables;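 further: highest value over a series up to 38 µM; compound alone in buffer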
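Spectroscopic profiling in the A488 region: compounds in pH 8.0 Tris (100 mM), 15 min RT, CCD imaging with 480 nm excitation and 540 nm emission; responses normalized against A488 dye standards.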
An asterisk follows results filed as active; i = inactive; u = inconclusive; x = no result given; [ ] = dose if it differs, or a comment. Some of the compounds tested (hit frequency here may not be typical).

Values run as follows: A647 autofl	TSHR agonist	AID923	Resorufin autofl	A488 fluor
(1) CCOc1ccccc1N(CC(=O)NCc1ccc(OC)cc1)S(C)(=O)=O
  1e-09	4.1%	-0.4%	i	i
(2) O=C(CN1CCN(CC(=O)Nc2ccc3c(c2)OCO3)CC1)Nc1ccc(F)cc1
  1e-09	u	1.8%	i	i
(3) Cc1c(C(=O)O)sc2nc3n(c(=O)c12)CCC(C)CC3 (stereo not given)
  1.55e-08	1.9%	0.1%	i	i
(4) C[C@]12CC[C@H]3c4ccc(O)cc4CC[C@@H]3[C@H]1CC[C@@H]2OC(=O)CCC1CCCC1
  7.1e-09	1.5%[11.4 µM]	2.0%[11.5 µM]	i	i
(5) CCCC(c1nnnn1Cc1ccco1)N1CCC(C(N)=O)CC1 (stereo not given)
  1.43e-08	1.0%	1.2%	i	i
(6) CC1=C(C(=O)Nc2ccccc2)C(c2ccccn2)n2nc(CCCO)nc2N1 (stereo not given)
  x	1.3%	2.4%	x	x
(7) O=C(Nc1ccc2oc(-c3ccncc3)nc2c1)c1cccs1
  3.7e-08	7.7%	10.8%	i	i
(8) O=C(CCCN1Cc2ccccc2C1)c1ccc(F)cc1
  1.66e-08	15.6%	0.3%	i	i
(9) COCCn1c(=O)[nH]c2cc(C(=O)NC(C)C)ccc2c1=O
  1.68e-08	3.6%	-0.2%	i	i
(10) CN1CCN(S(=O)(=O)c2cccc(S(=O)(=O)c3ccc(Cl)cc3)c2)CC1
  1.13e-08	11.5%	-0.3%	i	i
(11) CC(C)Cc1nc(N2CCN(C(=O)c3ccco3)CC2)c(C#N)c2c1CCC2
  1.5e-09	x	x	i	i
(12) c1cncc(-c2nn[nH]n2)c1
  3.4e-08	13.1%	-1.4%	i	i
(13) COc1cccc(/C(O)=C2/C(=O)C(=O)N(CCN(C)C)C2c2ccccn2)c1 (stereo not given)
  1e-09	-0.5%	2.9%	i	i
(14) Cc1c(C(=O)O)oc2ccc(S(=O)(=O)N3CC(C)CC(C)C3)cc12 (stereo not given)
  1.95e-08	-1.0%[11.4 µM]	-0.7%	i	i
(15) Cc1nc(N2CCC(C(N)=O)CC2)c2nnn(Cc3ccccc3)c2n1
  1e-09	0.3%	1.8%	i	i
(16) O=C(Nc1ccc(Oc2ccc(NC(=O)C3CCCO3)cc2)cc1)C1CCCO1 (stereo not given)
  x	14.5%[11.4 µM]	1.3%	x	x
(17) O=C(NC1CC1)c1ccc(S(=O)(=O)NC2CCCCCC2)cc1
  2e-09	3.0%	-1.0%	i	i
(18) O=C(CSc1nc2[nH]ncc2c(=O)n1-c1ccccc1)c1ccc2c(c1)OCCO2
  3.2e-09	29.1%	-1.5%	i	i
(19) Cc1cccc(OCc2nnc(SCC(=O)OC3CCCCC3)o2)c1
  9.3e-09	1.0%	0.6%	i	i
(20) O=C(NC1CCCCC1)NC1(C(=O)N2CCN3CCCC3C2)CCCCC1 (stereo not given)
  4.5e-09	1.5%	0.4%	i	i
(21) CCCOC(=O)c1ccc(Oc2c(-c3ccc(O)cc3O)n[nH]c2C)cc1
  1e-09	9.1%	-0.9%	i	i
(22) CC(=O)C(C(C)=O)c1c(Cl)c(O)c(O)c2c(C(=O)c3ccccc3)coc12
  3.5e-08	28.5%	-0.2%	i	i
(23) COc1ccc(Cn2c(C)nc3oc4cc(OC)ccc4c(=O)c3c2=O)cc1
  2.5e-09	-0.3%	-0.4%	i	i
(24) COc1ccc(N2C(=O)CC(N3CCOCC3)C2=O)cc1 (stereo not given)
  x	-12.9%	-0.4%	x	x
(25) c1csc(-c2nc(-c3ccncc3)no2)c1
  x	3.9%	-0.6%	x	x
(26) CCCCOC(=O)CCn1[nH]c(=O)c2ccccc2c1=O
  2.83e-08	2.0%	-0.2%	i	i
(27) Cc1ccc(-c2nnc(-c3ccc(Br)cc3)o2)o1
  1.76e-08	u	-2.6%	i	i
(28) CCN(C(=O)c1cnc(N2CCN(c3ncccn3)CC2)c2ccccc12)c1cccc(Cl)c1
  7.7e-09	u	3.3%	i	i
(29) COc1ccccc1N1CCN(C(c2cc3ccc(C)cc3[nH]c2=O)c2nnnn2C2CCCC2)CC1 (stereo not given)
  3.91e-08	u	5.1%	i	i
(30) O=C1CC(Sc2ncccn2)C(=O)N1c1ccccc1C(F)(F)F (stereo not given)
  1e-09	3.8%	0.3%	i	i

Full records, looked up by structure. Order of screens: A647 autofl | TSHR agonist | AID923 | Resorufin autofl | A488 fluor
Profile of COCCn1c(=O)[nH]c2cc(C(=O)NC(C)C)ccc2c1=O : 1.68e-08 | 3.6% | -0.2% | i | i
Profile of O=C(CSc1nc2[nH]ncc2c(=O)n1-c1ccccc1)c1ccc2c(c1)OCCO2 : 3.2e-09 | 29.1% | -1.5% | i | i

Additional entries follow.
Values run as follows: A647 autofl	TSHR agonist	AID923	Resorufin autofl	A488 fluor
(31) CCOC(=O)c1cnc(-n2nc(C)cc2C)nc1N(C)C
  2.63e-08	5.7%	1.2%	i	i
(32) CCSc1nnc2c(n1)OC1(CCCC1)Nc1ccccc1-2
  x	-10.3%	1.4%	x	x
(33) Cc1noc(C)c1S(=O)(=O)NCCc1ccc(S(N)(=O)=O)cc1
  1e-09	-2.9%	-1.8%	i	i
(34) COc1ccc(C2C(C#N)=C(/N=C/N3CCN(C)CC3)OC3=C2C(=O)CC(C)(C)C3)cc1 (stereo not given)
  5.6e-09	10.5%	-2.5%	i	i
(35) Cc1ccc(NC2=CC(=O)CC(C)(C)C2)cc1C
  x	u	5.3%	x	x
(36) COc1ccccc1CNC(=O)CCCN1C(=O)COc2ccc(C)cc21
  2.36e-08	x	-1.5%	i	i
(37) CCCCS(=O)CC(COc1ccc(Cl)cc1)OC(=O)c1ccccc1 (stereo not given)
  x	u	0.2%	x	x
(38) COc1ccc(C2C(C#N)=C(SC)NC3=C2C(=O)CC(C)(C)C3)cc1 (stereo not given)
  3.77e-08	x	x	i	i
(39) C=C(C)COc1ccc(-c2ncncc2Oc2ccc(OC)cc2)c(O)c1
  4.1e-09	x	-0.6%	i	i
(40) CN1CCN2c3ncccc3Cc3ccccc3C2C1 (stereo not given)
  x	u	-0.1%	x	x
(41) CCc1ccc(OCc2nnc(SCCN3CCOCC3)n2C)cc1
  2.9e-09	16.3%	0.4%	i	i
(42) Cc1nc(SCC(=O)Nc2ccc3c(c2)OCCO3)c2oc3ccccc3c2n1
  2.93e-08	3.98µM*	0.3%	i	i
(43) COc1ccc(OC)c(-n2c(O)cnc2Nc2nc(C)cc(C)n2)c1
  x	6.5%[11.4 µM]	-0.1%	x	x
(44) Cc1cc(=O)oc2cc(OCC(O)CN3CCN(c4ccc(F)cc4)CC3)ccc12 (stereo not given)
  1.54e-08	13.1%	3.1%	i	i
(45) CC1(C)SCC(C(=O)O)N1C=O (stereo not given)
  x	11.2%	-0.9%	x	x
(46) O=C(C1CC1)N1CCCN(C(=O)C2CC2)CC1
  x	11.0%	0.4%	x	x
(47) CC(=O)NCC(=O)NC1(C(=O)NC2CCCC2)CCCCC1
  2.2e-09	u	-0.8%	i	i
(48) CCc1nnc(NC(=O)c2c(OC)cccc2OC)s1
  2e-09	17.0%	-1.2%	i	i
(49) CC(=O)NC(Cc1c[nH]c2ccccc12)C(=O)NCc1ccc2c(c1)OCO2 (stereo not given)
  1e-09	-8.6%	4.4%	i	i
(50) COCCCNC(=O)Nc1ccc(Br)cc1Cl
  1.25e-08	7.0%	-1.6%	i	i
(51) CCOc1cc(N2CCOCC2)c(OCC)cc1NC(=O)COc1cccc2cccnc12
  2.5e-09	-4.1%[11.4 µM]	4.6%	i	i
(52) CCOC(=O)c1cccc2c1-c1ccccc1/C2=N/O
  1e-09	23.8%	-0.2%	i	i
(53) Cc1ccccc1-n1c(Cn2c(=O)sc3ccccc32)nnc1SCC(N)=O
  x	6.2%	-0.7%	x	x
(54) Cc1nc(Nc2cccc(C(F)(F)F)c2)nc2c1C(=O)CC(C)C2 (stereo not given)
  4.18e-08	3.9%	-1.6%	i	i
(55) O=C(O)C1CCCN1c1ncnc2ccccc12 (stereo not given)
  3.9e-08	-2.8%	2.0%	i	i
(56) CC(C)NC(=O)c1cc2cc(Br)ccc2oc1=O
  2.4e-09	10.8%	-0.4%	i	i
(57) O=C(CSc1nnc(Cn2nnc(-c3ccccc3)n2)n1-c1ccccc1)Nc1ccc(F)cc1
  2.3e-09	4.7%	-0.6%	i	i
(58) COc1ccc(-n2c(Cc3cccn3C)nnc2SCC(=O)Nc2ccccc2)cc1
  x	-1.4%	0.1%	x	x
(59) CC(=O)c1ccc(NC(=O)C(C)Sc2nnnn2C)cc1 (stereo not given)
  1e-09	-0.8%[11.4 µM]	0.5%	i	i
(60) CC(C)OCCCNC(=O)C1CCN(S(=O)(=O)N2CCCCC2)CC1
  5.3e-09	u	1.5%	i	i
(61) CC(NC(=O)COc1cccc(Br)c1)C(=O)O (stereo not given)
  2.17e-08	7.7%[11.4 µM]	-1.0%	i	i
(62) Cc1ccc(CNC(=O)CCS(=O)(=O)c2cccc3nsnc23)cc1
  1e-09	7.3%	0.0%	i	i
(63) NC(=O)C[C@@H](N)c1nn[nH]n1
  1e-09	2.5%[11.4 µM]	0.7%[11.5 µM]	i	i
(64) COc1ccccc1C1CC(c2ccc(Cl)cc2)Nc2nc(N)nn21 (stereo not given)
  3.2e-09	x	x	i	i
(65) COCCCNC(=O)C12CCC(C)(C(=O)C1)C2(C)C (stereo not given)
  1e-09	-1.8%	0.4%	i	i
(66) COc1ccccc1N1CCN(CC(=O)Nc2cccc(F)c2)CC1
  4.21e-08	u	-0.6%	i	i
(67) O=C(O)c1cc(Cl)c(Cl)cc1C(=O)N1CCOCC1
  x	7.5%	0.2%	x	x
(68) O=C(NC1CC2CCCC(C1)N2C(=O)NC1CCCCC1)c1ccc(F)cc1 (stereo not given)
  1e-09	-0.8%	0.5%	i	i
(69) COc1ccccc1NC(=O)C1=C(C)NC(SCC(=O)c2ccc(C)cc2)=C(C#N)C1c1ccco1 (stereo not given)
  7.68e-08	x	x	i	i
(70) CCOC(=O)c1oc2ccccc2c1NC(=O)c1ccc2c(c1)OCO2
  1e-09	u	0.0%	i	i
(71) CCN(CC)CCCNC(=O)N[C@@H](Cc1ccccc1)C(=O)O
  2.9e-08	3.5%	-1.3%	i	i
(72) O=C(c1ccco1)N1CCC(c2nc(-c3ccccc3Cl)no2)CC1
  5.3e-09	u	1.0%	i	i
(73) CCCC(=O)Nc1ccc(N2CCOCC2)cc1
  7.7e-09	1.6%	-1.5%	i	i
(74) CCC(=O)Nc1ccc(NC(=O)c2ccccn2)cn1
  3.87e-08	-8.0%	-0.8%	i	i
(75) O=C(Cn1ncnn1)OCc1ccccc1Cl
  1e-09	-3.1%	1.7%	i	i
(76) N#Cc1nc(Cc2cccc3ccccc23)oc1NCC1CCCO1 (stereo not given)
  1.5e-09	-1.4%	-1.7%	i	i
(77) COc1cc(-c2noc(CCC(N)=O)n2)cc(OC)c1OC
  1.1e-09	16.9%	1.0%	i	i
(78) CCC(C)NC(=O)C1CCC(=O)N1Cc1ccc(C)cc1 (stereo not given)
  4.26e-08	-0.8%	0.0%	i	i
(79) CC1=C(C(=O)OCc2ccccc2)C(c2ccc(C(F)(F)F)cc2)NC(=O)N1CCCCCC(=O)O (stereo not given)
  x	u	-4.4%	x	x

From PubChem BioAssay
